Bioassay records deposited in PubChem BioAssay by National Center for Advancing Translational Sciences (NCATS).
CtBP-E1A inh = inhibitors of CtBP/E1A interaction; AlphaScreen GST-E1A/His-CtBP binding, 1536-well; active compounds read low; control for the full effect not named in the record; activity change, % (test concentration not listed); 340,000 tested, 0.49% active; AID 651724; in the data active means activity change below about -65%; inconclusive means about -30% to -65%; inactive means above about -30%; further: on the % scale 0 is the no-effect control and ±100 the full control effect
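GST-E1A and His-tagged CtBP (125 nM each as 5X stock) were preincubated with pin-transferred compound for 2 h at 37 °C in the dark, then glutathione donor and nickel acceptor beads were added for 1 h before AlphaScreen reading.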
gsp agonist = gsp mutant agonism | gsp mutant cells, cAMP HTRF, 30 min; control for the full effect not named in the record | Potency, µM (titrated, usually from 76.9 µM), inactives show at the top dose activation (cAMP increase), most hits filed as activators | 340,000 tested, 0.13% active | AID 624287; active = well fitted activation curve with a large enough effect; inconclusive = small, poorly fitted or top-dose-only effect, or another doubt; inactive = no such curve, though single readings can be large or run the other way; cell line not stated here;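 further: phosphodiesterase inhibitor Ro 20-1724 added with compounds to block cAMP breakdown; potency means the concentration at half of the fitted maximal effect; nearly all actives have a fitted effect of over 60% in size; about a fifth of the inactives were tested at one dose only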
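Cells stably selected in G418 were plated at 2000/well, grown 16-24 hr, then given compounds in DMSO with the PDE inhibitor […] (300 uM solution added) for 30 min at 37C; cAMP was read by HTRF.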
Six1-Eya2 inh = inhibitors of human Six1/Eya2 interaction. Q15475+O00167. AlphaScreen GST-Six1/His-Eya2 binding, biochemical; active compounds read low; control for the full effect not named in the record. activity change, % (no concentration beside the values). 360,000 tested, 0.56% active; in the data active = activity change below about -65%; inconclusive = about -30% to -65%; inactive = above about -30%; further: on the % scale 0 is the no-effect control and ±100 the full control effect
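AlphaScreen with GST-Six1 and His-Eya2 (5X mix: 250 nM and 500 nM), glutathione donor and nickel acceptor beads; buffer 50 mM Tris pH 8.0, 300 mM NaCl, 1 mM TCEP; 1 h at 37 C in the dark.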
D2 PAM = potentiates the human D2 dopamine receptor allosterically; DiscoveRx D2 beta-arrestin cells, luminescence, 90 min; 100% = 57 uM dopamine signal; 360,000 tested, 0.23% active; potentiation, % (test concentration not listed); P14416; active = potentiation of 50% or more; inconclusive = 30% to 50%; inactive = 30% or less;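 further: compound concentration not given in the record; tested on top of an EC20 dose of dopamine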
Target sequence (P14416 whole entry, looked up): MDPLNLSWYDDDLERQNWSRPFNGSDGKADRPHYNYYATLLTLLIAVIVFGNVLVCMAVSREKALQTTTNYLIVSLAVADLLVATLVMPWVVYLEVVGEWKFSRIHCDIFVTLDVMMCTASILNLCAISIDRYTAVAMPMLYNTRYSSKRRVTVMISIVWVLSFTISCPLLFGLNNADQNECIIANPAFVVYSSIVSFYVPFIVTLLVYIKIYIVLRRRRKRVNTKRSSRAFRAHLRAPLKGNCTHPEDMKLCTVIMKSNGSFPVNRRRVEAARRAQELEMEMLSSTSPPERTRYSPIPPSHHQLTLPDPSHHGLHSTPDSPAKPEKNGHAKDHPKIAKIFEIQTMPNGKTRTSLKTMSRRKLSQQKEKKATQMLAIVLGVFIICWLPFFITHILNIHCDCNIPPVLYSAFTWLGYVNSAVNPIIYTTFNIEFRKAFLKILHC
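D2 cells co-treated with compound plus 50 nM dopamine (EC20) for 90 min at 37 deg C to detect potentiation. Beta-arrestin recruitment was read as enzyme-fragment luminescence after 1 h at ambient temperature. Full response was set by 57 uM dopamine.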
gsp antagonist = antagonists of gsp mutant (McCune-Albright syndrome). gsp-mutant cells, cAMP HTRF, 30 min; control for the full effect not named in the record. Potency, µM (series often up to 76.9 µM), for inactives: top-dose activity change, negative = inhibition, actives largely listed as inhibitors. 340,000 tested, 0.4% active. AID 624288; active = falling curve of any shape with a large fitted effect; inconclusive = falling curve, mostly with a smaller effect; inactive = flat or rising curve; cell line not stated here;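 further: intracellular cAMP measured with PDE inhibitor Ro 20-1724 present during compound exposure; potency means the concentration at half of the fitted maximal effect; on the % scale 0 is the no-effect control and ±100 the full control effect; nearly all actives have a fitted effect of over 65% in size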
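HTRF cAMP read-out (cAMP-d2 plus anti-cAMP antibody-K in lysis buffer, 30 min RT). Before lysis, cells are exposed to compounds with […] for 30 min at 37C in DPBS containing Ca/Mg, BSA and Tween 20.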
D2 ag = human D2 receptor agonism in beta-arrestin assay; 360,000 tested, 0.084% active; P14416; AID 624465; activation, % (test concentration not listed); DiscoveRx PathHunter D2 beta-arrestin, luminescence, 90 min; 100% = 57 uM dopamine signal; in the data active = activation above about 40%; inconclusive = about 15% to 40%; inactive = below about 15%; further: compound concentration not given in the record; the text of the record calls up to 30% inactive
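DiscoveRx PathHunter D2 beta-arrestin cells (2,100/well) attached overnight, then compound-stimulated 90 min at 37 C in HBSS/10 mM HEPES/0.1% Tween-20 buffer; beta-galactosidase complementation read by luminescence after 1 h at ambient temperature. Dopamine 57 uM final (EC100) as control.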
* marks the source's active call; other numbers are inactive results; ? = inconclusive; / = no result given; & = joins results of further samples; [ ] = remark or other dose.

1: CCCCCCSc1cccc(-c2nc3ccc(Cl)cn3c2NCc2ccccc2)c1
2: COc1ccccc1CNCC(O)Cn1c2ccccc2c2ccccc21 (configuration not stated)
3: O=C(Cn1cc2c(n1)CCCC2)NCC1CCCO1 (configuration not stated)
4: O=C(COC(=O)c1ccco1)c1ccc(F)cc1
5: CCOC(=O)c1c(Nc2ccccc2)sc(/C=C2\C=Nc3ccccc32)c1O
6: CC(C)(C)c1nnc2sc(SCC(=O)N3CCc4ccccc43)nn2c1=O
7: O=C1CC(c2ccc(S(=O)(=O)Nc3cc(C(F)(F)F)cc(C(F)(F)F)c3)cc2)CN1 (configuration not stated)
8: Cc1nc2ccc(NC(=O)c3nn(CC(C)C)c(=O)c4ccccc34)cc2s1
Screen / compound no.,1,2,3,4,5,6,7,8
CtBP-E1A inh,4&-2,-17,1,0,5,9,3,5
gsp agonist,/,-55%[inhibitor],-8%,9%[15.4 µM],28%,1%[15.4 µM],6%,18%[15.4 µM]
Six1-Eya2 inh,16&36,-2,0,-15,-2,14,2,-2
D2 PAM,-17,-2,-1,-9,2,-2,5,-2
gsp antagonist,8%,10%,12%,7%,3%,-22%,-7%,-34%
D2 ag,-3.2,0.9,-3.0,-3.7,-0.9,-3.0,-0.9,0.3

9: Cc1nc(Cl)c(C(=O)NC(=O)Nc2cccc(C(F)(F)F)c2)c(C)c1[N+](=O)[O-]
10: O=C(Nc1ccc(C2CCCCC2)cc1)C1CCN(c2ncccn2)CC1
11: CCCCCCCCn1c2c(c(=N)c3ccccc31)CCC2
12: O=C(CSc1ccc2nnc(-c3ccccn3)n2n1)Nc1ccc(F)cc1
13: CN(Cc1ccccc1)Cc1c(F)cccc1F
14: N#Cc1c(NC(=O)c2nc3ncccn3n2)sc2c1CCCCC2
15: COCCN1C(=O)c2oc3cc(C)c(C)cc3c(=O)c2C1c1ccc(O)cc1 (configuration not stated)
16: Cc1ccccc1-n1nnnc1SCc1ncc(-c2ccccc2)o1
Screen / compound no.,9,10,11,12,13,14,15,16
CtBP-E1A inh,3,8,1,?,11,12,4,-1
gsp agonist,-20%,3%,26%[15.4 µM],?,7%,4%,-8%,-23%
Six1-Eya2 inh,-2,13,1,?,7,-5,4,-7
D2 PAM,-23,-4,-23,-3,-10,-2,6,-5
gsp antagonist,?,7%,-5%,2%,5%,6%,-1%,-19%
D2 ag,-1.6,0.8,-7.5,-5.4,-2.9,0.6,-2.7,-1.5

17: O=C(COc1ccccc1Cl)Nc1cc(NC(=O)COc2ccccc2Cl)cc(C(=O)O)c1
18: O=S(=O)(c1cccc(COc2c(Cl)cccc2Cl)c1)N1CCOCC1
19: CCn1c(=O)n(CC(=O)N(C)Cc2ccccc2)c(=O)c2ccccc21
20: COc1ccc(-c2nc(NC(=O)c3ccc(OCC(=O)N4CCOCC4)c(OC)c3)sc2C)cc1
21: O=C(CSc1nc2ccccc2[nH]1)Nc1nc(-c2cccc(Br)c2)cs1
22: COC(=O)c1cc2sc(Cl)cc2n1CC(=O)N1CCCc2ccccc21
23: Cc1ccc2c(c1)NC(=O)C(CC(=O)O)O2 (configuration not stated)
24: CC(C)(C)NC(=O)C(c1ccncc1)N(C(=O)c1csnn1)c1cccc2ccccc12 (configuration not stated)
Screen / compound no.,17,18,19,20,21,22,23,24
CtBP-E1A inh,0,35,0,3,13,7,4,2
gsp agonist,13%[15.4 µM],-7%,-43%[inhibitor],-16%,-23%,-35%[inhibitor],?,-10%[15.4 µM]
Six1-Eya2 inh,?,53,25,-17,24,-7,5,-1
D2 PAM,7,-12,-7,-16,-19,-5,0,0
gsp antagonist,6%,-15%,-10%,35µM*,3%,5%,9%,10%
D2 ag,0.9,-0.8,-4.2,-5.1,-2.4,2.6,1.5,0.5

A run of entries of the results above, for reference:
17: O=C(COc1ccccc1Cl)Nc1cc(NC(=O)COc2ccccc2Cl)cc(C(=O)O)c1
18: O=S(=O)(c1cccc(COc2c(Cl)cccc2Cl)c1)N1CCOCC1
19: CCn1c(=O)n(CC(=O)N(C)Cc2ccccc2)c(=O)c2ccccc21
Screen / compound no.,17,18,19
CtBP-E1A inh,0,35,0
gsp agonist,13%[15.4 µM],-7%,-43%[inhibitor]
Six1-Eya2 inh,?,53,25
D2 PAM,7,-12,-7
gsp antagonist,6%,-15%,-10%
D2 ag,0.9,-0.8,-4.2

Along the list, as entered above.
D2 ag for nos. 17 to 24 → 0.9, -0.8, -4.2, -5.1, -2.4, 2.6, 1.5, 0.5
Six1-Eya2 inh for nos. 17 to 24 → ?, 53, 25, -17, 24, -7, 5, -1

Later entries
25: COc1ccc(-c2nc(C)sc2CC(=O)O)cc1OC
26: COc1ccc(CNS(=O)(=O)NCc2ccccc2)cc1
27: Cc1ccc(S(=O)(=O)CCC(=O)OCC(=O)c2c(C)[nH]c3ccccc23)cc1
28: CCOC(=O)C1CCN(C(=O)CCNS(=O)(=O)c2ccc3c(c2)CCN3C(=O)CC)CC1
29: CSCCC(NC(=O)C1CCC(C)CC1)C(=O)Nc1ccc(NC(C)=O)cc1 (configuration not stated)
30: Cc1cc(NS(=O)(=O)c2ccc(NC(=O)COc3ccccc3Cl)cc2)no1
31: CCCCCC(=O)Nc1cc(S(=O)(=O)N2CCCCC2)ccc1N1CCCCC1
32: CN(c1ccc(C(=O)N2CCN(Cc3ccc4c(c3)OCO4)CC2)cc1)S(C)(=O)=O
Screen / compound no.,25,26,27,28,29,30,31,32
CtBP-E1A inh,9,-18,12,3,1,4,2,5
gsp agonist,-1%,-27%,-1%[15.4 µM],3%,2%[15.4 µM],-7%,0%[15.4 µM],-3%[15.4 µM]
Six1-Eya2 inh,-5,-3,-11,0,-5,5,3,8
D2 PAM,-5,-6,-14,-5,-10,6,3,-6
gsp antagonist,4%,13%,-30%,-10%,-21%,-12%,-20%,2%
D2 ag,7.3,-4.2,-5.7,0.0,1.0,0.3,0.4,-0.5

Compound profiles, from the list above. Order of values: CtBP-E1A inh, gsp agonist, Six1-Eya2 inh, D2 PAM, gsp antagonist, D2 ag
`CCOC(=O)C1CCN(C(=O)CCNS(=O)(=O)c2ccc3c(c2)CCN3C(=O)CC)CC1` is entered as 3, 3%, 0, -5, -10%, 0.0
`COc1ccc(CNS(=O)(=O)NCc2ccccc2)cc1` is entered as -18, -27%, -3, -6, 13%, -4.2
`Cc1ccc(S(=O)(=O)CCC(=O)OCC(=O)c2c(C)[nH]c3ccccc23)cc1` is entered as 12, -1%[15.4 µM], -11, -14, -30%, -5.7
`Cc1cc(NS(=O)(=O)c2ccc(NC(=O)COc3ccccc3Cl)cc2)no1` is entered as 4, -7%, 5, 6, -12%, 0.3
`CCCCCC(=O)Nc1cc(S(=O)(=O)N2CCCCC2)ccc1N1CCCCC1` is entered as 2, 0%[15.4 µM], 3, 3, -20%, 0.4

The results go on.
33: O=C(C1=C(O)C(=O)N(CCN2CCOCC2)C1c1ccc([N+](=O)[O-])cc1)c1cc2ccccc2o1 (configuration not stated)
34: CCn1cc(Br)c(C(=O)Nc2nccs2)n1
35: COc1c(F)c(F)c(C(=O)O)c(Nc2ccc(C)cc2)c1F
36: Cc1cc(C)nc(NCc2ccc(Cl)cc2)n1
37: Cc1ccccc1N=Cc1cc2c(cc1[N+](=O)[O-])OCO2
38: O=C1/C(=C\c2ccccn2)SC(=S)N1c1ccc(S(=O)(=O)Nc2nccs2)cc1
39: Cc1cccc(N2C(=O)c3cccc(Oc4ccc(Cl)cc4)c3C2=O)c1
40: CCC(=O)N1CCC1(C)C(=O)Nc1cc(-c2ccccc2)nn1C (configuration not stated)
Screen / compound no.,33,34,35,36,37,38,39,40
CtBP-E1A inh,/,-12,9,-16,-6,-22,/,8
gsp agonist,0%,7%,-39%,-29%[15.4 µM],4%[15.4 µM],0%[15.4 µM],?,/
Six1-Eya2 inh,-3,-1,2,6,-4,-24,-2,9
D2 PAM,-7,-5,-14,-8,22,-7,-8,2
gsp antagonist,-1%,-7%,-4%,-1%,7%,40µM*,-11%,/
D2 ag,3.4,0.8,-0.9,1.6,4.2,0.4,-3.0,0.5

41: CCCCC1=CC2=C(c3ccco3)C(=O)C(C)(OC(=O)c3ccc(OC)cc3)C(=O)C2=CN1CCc1ccccn1 (configuration not stated)
42: Cc1cc(Cl)cc(Br)c1OCCCCn1cncn1
43: CCc1ccc(C(C(=O)NC2CCCCC2)N(C(=O)c2csnn2)C2CC2)cc1 (configuration not stated)
44: CSc1nncn1/N=C/c1cc(Cl)ccc1F
45: CCN1C(=O)[C@@H]2[C@@H](c3ccc(-c4ccc(C(C)=O)cc4)c(OC)c3)N3CCC[C@@]3(C(=O)OC)[C@@H]2C1=O
46: O=C(c1ccc(-c2ccccc2)cc1)N1CCCC1
47: Cc1cc(=O)n2c3ccccc3n(CC(O)CN3CCN(CCO)CC3)c2c1C#N (configuration not stated)
48: CNc1cncc(-c2ccc(OC)cc2OC)n1
Screen / compound no.,41,42,43,44,45,46,47,48
CtBP-E1A inh,-14,2,2,0,/,9,-3,-1
gsp agonist,?,-14%,6%,20%,?,-45%[inhibitor],?,/
Six1-Eya2 inh,-13,9,6,-1,3,5,3,4
D2 PAM,2,-13,-5,18,0,-7,-2,-9
gsp antagonist,27%,-8%,-4%,2%,-2%,?,-15%,/
D2 ag,2.3,-3.2,0.0,1.7,-1.0,0.0,-4.5,-5.0

49: COc1ccc(/C=N/NC(=O)Cn2nc([N+](=O)[O-])cc2C)c(OC)c1OC
50: Cc1c(NC(=O)c2ccc3ncccc3c2)c(=O)n(-c2ccccc2)n1C
51: COc1ccccc1N=c1oc2cc(O)ccc2cc1C(N)=O
52: Nc1c(C(=O)c2ccc(Cl)cc2)sc2nsc(SCCN3CCOCC3)c12
53: CC(C)C(=O)N1CCN(c2nc(-c3ccccc3)c3c(c2C#N)CCCC3)CC1
54: O=C1CC(c2ccccc2)CC(O)=C1C=NC1CCCCCC1 (configuration not stated)
55: COc1ccc(C(=O)NC2CCc3ccccc32)cc1OC1CCN(C(C)C)CC1 (configuration not stated)
56: CCCCNC(=S)N(CCN(C)C)Cc1cc2cc3c(cc2[nH]c1=O)OCCO3
Screen / compound no.,49,50,51,52,53,54,55,56
CtBP-E1A inh,/,0,-10,18,11,4,7,1
gsp agonist,24%,-16%,-5%[15.4 µM],-4%[15.4 µM],16%,17%,?,-1%
Six1-Eya2 inh,0,-4,-27,6,13,1,-1,-2
D2 PAM,-28,-10,-3,-4,-6,-17,-4,-4
gsp antagonist,1%,8%,-6%,-15%,-10%,3%,15%,3%
D2 ag,-3.6,-4.0,-3.5,-0.8,-2.9,-2.6,-3.1,8.5
